Rango release inh: inhibition of RanGTP-driven Rango-importin beta dissociation; AID 540253; Potency, µM (top dose mostly 46.1 µM), without a hit: at the top dose activity change, negative = inhibition; hit rate 0.071% among 340,000; O95149+P62826; Biochemical FRET Rango-importin beta, RanGTP-induced dissociation; active means falling FRET ratio curve, often poorly fitted, with flat reads before Ran was added; inconclusive means other falling curves, or compound fluorescence or quenching; inactive means flat or rising ratio curve;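 also: potency is read from the fitted curve at half-maximal effect; % of control where 0% means no effect; nearly all actives have a fitted effect of over 45% in size; -100% = wells without RanGTP and RCC1; the record marks most hits as doubtful in a second field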
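Rango/importin beta premix (0.1/0.25 uM final), PBS + 1 mM DTT + 0.02% Tween-20 + 0.1% BSA; cpd 5 min RT; FRET pre-read; + RanGTP-RCC1 (0.6 uM Ran, 2 mM GTP, 0.2 uM RCC1); 45 min RT; FRET post-read, ex 430, em 486/530 nm.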
miR-21 reporter: miR-21 reporter, rising signal; HeLa miR-21 FLuc reporter, luciferase, 48 h; Potency, µM (highest dose often 38.3 µM), for the others: top-dose reporter change, positive = more light; 340,000 tested, under 10 active; AID 2288; active = well fitted rising curve with a large enough effect; inconclusive = small, poorly fitted or top-dose-only effect; inactive = no such curve, though single readings can be large or run the other way;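 also: % of control where 0% means no effect; miR-21 action dims this reporter so a rising signal means less miR-21 action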
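HeLa cells endogenously expressing miR-21, stably carrying CMV-driven firefly luciferase with a downstream miR-21 binding site, 2000 cells/well. Titrations up to approximately 40 uM, 48 hours; luciferase luminescence read.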
Rango complex inh: Rango-importin beta binding inhibition; Q14974; Rango CFP/YFP FRET sensor + importin beta, 45 min; Potency, µM (top dose mostly 92.2 µM), inactives show at the top dose inhibition of complex formation; hit rate 0.031% among 340,000; active = rising FRET ratio curve, often small or poorly fitted; inconclusive = mostly compound fluorescence or quenching in the first reads; inactive = flat curves in all reads;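 also: potency is read from the fitted curve at half-maximal effect; 0% = DMSO wells and 100% = buffer wells lacking importin beta; nearly all actives have a fitted effect of over 15% in size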
Target sequence (Q14974 whole entry, looked up): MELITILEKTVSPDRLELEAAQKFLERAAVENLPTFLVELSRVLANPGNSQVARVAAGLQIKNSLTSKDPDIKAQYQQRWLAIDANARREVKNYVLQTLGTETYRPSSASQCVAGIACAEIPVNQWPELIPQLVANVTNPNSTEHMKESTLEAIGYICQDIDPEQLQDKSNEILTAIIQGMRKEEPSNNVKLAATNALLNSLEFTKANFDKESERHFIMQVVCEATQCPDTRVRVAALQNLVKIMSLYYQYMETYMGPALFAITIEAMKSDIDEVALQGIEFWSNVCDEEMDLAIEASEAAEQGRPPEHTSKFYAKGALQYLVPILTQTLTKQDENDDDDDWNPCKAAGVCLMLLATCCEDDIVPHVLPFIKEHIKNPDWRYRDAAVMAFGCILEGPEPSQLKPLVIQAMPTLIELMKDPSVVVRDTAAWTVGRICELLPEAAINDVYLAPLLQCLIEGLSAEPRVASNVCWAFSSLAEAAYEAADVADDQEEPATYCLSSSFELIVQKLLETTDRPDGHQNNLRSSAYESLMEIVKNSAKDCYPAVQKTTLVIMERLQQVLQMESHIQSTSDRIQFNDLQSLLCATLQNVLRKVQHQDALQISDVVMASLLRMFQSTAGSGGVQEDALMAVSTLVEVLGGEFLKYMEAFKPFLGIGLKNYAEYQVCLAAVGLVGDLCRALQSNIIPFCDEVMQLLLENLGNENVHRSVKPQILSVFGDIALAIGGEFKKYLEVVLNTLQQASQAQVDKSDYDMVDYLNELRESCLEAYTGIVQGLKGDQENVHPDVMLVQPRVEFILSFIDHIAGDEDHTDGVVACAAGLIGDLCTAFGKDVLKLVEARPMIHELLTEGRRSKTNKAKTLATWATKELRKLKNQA
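Inhibition scored from the CFP 486 nm/YFP 530 nm FRET ratio 45 min after adding 0.125 microM importin beta to 50 nM Rango biosensor preincubated 5 min with compound (room temperature, PBS with DTT, Tween-20, BSA). No-importin wells as positive control.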
GLA inh pH 4.5: alpha-galactosidase A (human) inhibition, pH 4.5 | P06280 | 230,000 tested, under 10 active | activity change, negative = inhibition, % at 105 µM | AID 1467 | purified enzyme, 4-MU-alpha-Gal fluorescence, pH 4.5; inconclusive = small, poorly fitted or top-dose-only inhibition, or a rising curve; inactive = flat fitted curve, though single readings scatter; no compound was filed as active;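 also: 0% = full activity with enzyme and -100% = basal without enzyme; dose as in the result columns while the protocol names 77 µM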
* = called active by the depositor. An excerpt. The share of hits here may be higher or lower than overall.

Start of the data: the first 2 records as a preview:
`O=C(Nc1cccc(O)c1)C1CC(c2cccc(Br)c2)=NO1` (stereo unspecified) gave Rango release inh -2%, miR-21 reporter -7% and Rango complex inh -5.9%.
Screening CCOc1ccccc1-n1c(SCC(=O)NC(C)(C)C)nnc1-c1ccoc1C returned Rango release inh 12%, miR-21 reporter 1%, Rango complex inh -2.5% and GLA inh pH 4.5 -19.

The list itself, from the first entry:
`O=C(Nc1cccc(O)c1)C1CC(c2cccc(Br)c2)=NO1` (stereo unspecified) gave Rango release inh -2%, miR-21 reporter -7% and Rango complex inh -5.9%.
Screening CCOc1ccccc1-n1c(SCC(=O)NC(C)(C)C)nnc1-c1ccoc1C returned Rango release inh 12%, miR-21 reporter 1%, Rango complex inh -2.5% and GLA inh pH 4.5 -19.
CC1=CC(=NNS(=O)(=O)c2ccc([N+](=O)[O-])cc2)CC(C)(C)C1 was read as Rango release inh 0% and Rango complex inh -1.2%.
Screening Cc1ccc(CNC(=O)CCS(=O)(=O)c2cc(Br)cc3c2N(C(=O)C2CC2)CC3)o1 returned Rango release inh 1%, miR-21 reporter -6%, Rango complex inh 0.2% and GLA inh pH 4.5 -1.
Cc1nc(-c2ccccc2)cs1 was read as Rango release inh -1%, miR-21 reporter -1%, Rango complex inh -1.4% and GLA inh pH 4.5 -6.
`O=C(CSCc1ccccc1)N1CCc2ccccc21` gave Rango release inh 10%, miR-21 reporter -40%, Rango complex inh -2.7% and GLA inh pH 4.5 4.
Nc1nc(Nc2cccc(F)c2)nc(NCc2ccco2)c1[N+](=O)[O-] was read as Rango release inh -21%, miR-21 reporter -13%, Rango complex inh -3.5% and GLA inh pH 4.5 -7.
For CN1CCN(C(CNC(=O)C(=O)NC2CCCCC2)c2ccc(F)cc2)CC1 (stereo unspecified) the results were Rango release inh -2% and Rango complex inh -1.7%.
For COc1ccc(C(=O)N2CCC(O)(c3ccc(Cl)cc3)CC2)cc1OC the results were Rango release inh -4%, miR-21 reporter -11%, Rango complex inh -0.3% and GLA inh pH 4.5 -6.
CCOC(=O)C1=CN(Cc2cccc(F)c2)S(=O)(=O)N(C)C1CCc1ccccc1 (stereo unspecified) was read as Rango release inh 4% and Rango complex inh inconclusive.
Cc1cccc(-n2c(=S)[nH]c3sc4c(c3c2=O)CCc2ccccc2-4)c1 was read as Rango release inh -6%, miR-21 reporter -28%, Rango complex inh -2.4% and GLA inh pH 4.5 4.
For C[C@H]1CN([C@@H](C)CO)C(=O)c2cccc(NS(=O)(=O)c3ccc(F)cc3)c2O[C@H]1CN(C)Cc1ccc(Cl)c(Cl)c1 the results were Rango release inh -10% and Rango complex inh 0.6%.
COc1cccc(/C=C2\SC(=S)N(CCCC(=O)NC3=NCCS3)C2=O)c1 was read as Rango release inh 0%, miR-21 reporter 5% and Rango complex inh -2.1%.
CC(=O)Nc1ccc(NC(=O)CSc2nc3c([nH]c4ccccc43)c(=O)n2-c2ccccc2F)cc1 was read as Rango release inh -4%, miR-21 reporter 16% and Rango complex inh -2.8%.
Screening Cc1ccc(C(=O)N2CCCC(Nc3cccc(F)c3)C2)cc1N1CCNC1=O (stereo unspecified) returned Rango release inh -6%, miR-21 reporter 0% and Rango complex inh -0.3%.
`O=C(NNC(=O)c1ccccc1F)c1cccs1` gave Rango release inh 0%, miR-21 reporter -41% and Rango complex inh 0.2%.
COc1ccc(NS(=O)(=O)c2ccc(C(=O)N3CCN(Cc4ccccc4)CC3)cc2)cc1 was read as Rango release inh 9%, miR-21 reporter 23%, Rango complex inh 2.7% and GLA inh pH 4.5 -8.
Screening CCC/C=N/NC(=O)c1cc(-c2ccccc2)nc2ccccc12 returned Rango release inh 6%, miR-21 reporter -9%, Rango complex inh 8.7% and GLA inh pH 4.5 6.
Screening COc1cc(C(=O)N/N=C/c2ccc(OC(=O)c3cccc(C)c3)c(OC)c2)ccc1O returned Rango release inh 1%, miR-21 reporter -2% and Rango complex inh 3.7%.
Screening CCCCCCCCn1cnc2c(N)c(C)c(C)cc21 returned Rango release inh -5%, miR-21 reporter 1%, Rango complex inh 2.3% and GLA inh pH 4.5 -1.
Screening COCCN(C(=O)CSc1nnc(-c2ccc(Cl)cc2)o1)c1c(N)n(CC(C)C)c(=O)[nH]c1=O returned Rango release inh 37%, miR-21 reporter 2% and Rango complex inh 0.1%.
Screening C=CCn1c(SCC(=O)NC(=O)NC)nnc1C1CCCCC1 returned Rango release inh -12%, miR-21 reporter 0%, Rango complex inh -2.2% and GLA inh pH 4.5 -10.
Screening O=C(N/C(=C/c1ccco1)C(=O)N1CCCCCC1)c1ccccc1 returned Rango release inh 74%, miR-21 reporter -3% and Rango complex inh inconclusive.
For Cc1cccc(N2CCN(C(=O)CCCSc3nc4ccccc4[nH]3)CC2)c1C the results were Rango release inh -1%, miR-21 reporter 26%, Rango complex inh -3.9% and GLA inh pH 4.5 -11.
CC(=O)C(C(C)=O)C1(O)C(=O)c2ccccc2C1=O was read as Rango release inh -11%, miR-21 reporter 4%, Rango complex inh 0.2% and GLA inh pH 4.5 5.
For O=c1oc(-c2cccnc2)nc2ccccc12 the results were Rango release inh 1%, miR-21 reporter -2%, Rango complex inh 0.1% and GLA inh pH 4.5 -2.
For CCCCCCOC(=O)CC1CC(C(C)=O)C1(C)C (stereo unspecified) the results were Rango release inh -7% and Rango complex inh 0.8%.
CC(=O)Nc1ccc(Nc2nc(-c3sc(NC(C)=O)nc3C)cs2)cc1 was read as Rango release inh -6%, miR-21 reporter 28% and Rango complex inh 2.8%.
For S=C1NCN(Cc2cccnc2)CN1Cc1ccccc1 the results were Rango release inh 3%, miR-21 reporter -1%, Rango complex inh -0.6% and GLA inh pH 4.5 1.
For O=C(NCCCO)c1cc([N+](=O)[O-])cc2c1C=Cc1ccccc1O2 the results were Rango release inh 11%, miR-21 reporter -8%, Rango complex inh inconclusive and GLA inh pH 4.5 -6.
For COCCNS(=O)(=O)c1cc(C)c(C)cc1C the results were Rango release inh -14%, miR-21 reporter -2%, Rango complex inh -1.9% and GLA inh pH 4.5 -4.
For CNC(=O)COC(=O)/C=C/c1cn(-c2ccccc2)nc1-c1ccc2c(c1)OCCO2 the results were Rango release inh 13%, miR-21 reporter 10%, Rango complex inh 1.8% and GLA inh pH 4.5 -1.
Screening COc1ccc(NC(=O)CC(c2ccc(F)cc2)c2ccc(OC)cc2)cc1 (stereo unspecified) returned Rango release inh -4%, miR-21 reporter -4%, Rango complex inh 2.6% and GLA inh pH 4.5 10.
Screening CCN=C1SC(CC(=O)NC2CCCCC2)C(=O)N1CC (stereo unspecified) returned Rango release inh 25%, miR-21 reporter 0%, Rango complex inh inconclusive and GLA inh pH 4.5 -5.
Screening O=C(CN(c1ccc(F)cc1)S(=O)(=O)c1ccccc1)Nc1ccccc1C(=O)O returned Rango release inh -4%, miR-21 reporter -18%, Rango complex inh -1.2% and GLA inh pH 4.5 9.
For CCOc1ccc(S(=O)(=O)NCCC(=O)N2CC=C(c3ccccc3)CC2)cc1 the results were Rango release inh inconclusive and Rango complex inh -2.7%.
`CC1CC(C)CN(C(=O)COC(=O)COc2ccc(C#N)cc2)C1` (stereo unspecified) gave Rango release inh 14% and Rango complex inh 0.2%.
Screening Cc1cc(/C=C2/NC(=O)NC2=O)c(C)n1-c1sc2c(c1C#N)CCCC2 returned Rango release inh -20%, miR-21 reporter 5%, Rango complex inh -0.8% and GLA inh pH 4.5 -9.
C=CCc1cc(OC)ccc1OCCON1C(=O)CCC1=O was read as Rango release inh 3%, miR-21 reporter 0%, Rango complex inh -3.1% and GLA inh pH 4.5 -4.
`COCCN(CC(=O)Nc1cccc(C)c1C)C(=O)c1cc2ccccc2cc1OC` gave Rango release inh 1% and Rango complex inh 0.2%.
Screening Cc1cc2cc(CN3C(=O)c4ccccc4C3=O)ccc2n1C returned Rango release inh -8%, miR-21 reporter -6%, Rango complex inh 0.2% and GLA inh pH 4.5 6.
`CC(C)(C)[C@H]1COC(=O)[C@@H](NC(=O)OCC2c3ccccc3-c3ccccc32)C/C=C\C[C@@H](CC(=O)N[C@@H](CO)Cc2ccccc2)C(=O)N1` gave Rango release inh -6% and Rango complex inh -0.5%.
Screening Cc1ccc(OCC(=O)N2CCN(C3=NS(=O)(=O)c4ccccc43)CC2)cc1 returned Rango release inh 5%, miR-21 reporter 0%, Rango complex inh 0.0% and GLA inh pH 4.5 -16.
`O=C(/C(=C(\O)c1ccccc1)c1nc2ccccc2[nH]1)c1ccccc1` gave Rango release inh -3%, miR-21 reporter -4%, Rango complex inh 1.5% and GLA inh pH 4.5 -5.
Screening CCCNS(=O)(=O)c1ccc(OCC(=O)NCCC2=CCCCC2)cc1 returned Rango release inh -20%, miR-21 reporter -6%, Rango complex inh -2.9% and GLA inh pH 4.5 3.
Screening Cc1cccc(CCNC(=O)c2cc(S(=O)(=O)N3CCOCC3)cn2C)c1 returned Rango release inh -9%, miR-21 reporter -3% and Rango complex inh 0.4%.
For Cc1nn(-c2ccccc2)nc1C(=O)Oc1cc(C(F)(F)F)nn1-c1ccccc1 the results were Rango release inh 31%, miR-21 reporter -7%, Rango complex inh -0.8% and GLA inh pH 4.5 -13.
`Cc1cc(C)c(S(=O)(=O)c2ccccc2)c(OC(=O)c2c(F)cccc2F)n1` gave Rango release inh 1%, miR-21 reporter 1%, Rango complex inh 0.2% and GLA inh pH 4.5 3.
For CCN(CCCNC(=O)C1CCN(S(=O)(=O)c2cnc[nH]2)CC1)c1cccc(C)c1 the results were Rango release inh -3%, miR-21 reporter -9%, Rango complex inh 0.4% and GLA inh pH 4.5 13.
O=C(NCc1ccc(Cl)c(Cl)c1)C1CCCC1 was read as Rango release inh 4% and Rango complex inh 0.8%.
Screening O=C(NC1CCN(Cc2ccccc2)CC1)c1cccc(OC(F)F)c1 returned Rango release inh -1%, miR-21 reporter -1% and Rango complex inh -2.0%.
`O=c1c2[nH]c3ccc(F)cc3c2nc2n1CCS2` gave Rango release inh -15%, miR-21 reporter -2%, Rango complex inh 3.2% and GLA inh pH 4.5 -6.
O=C(CN(Cc1ccccc1)C(=O)c1csnn1)NCCc1ccccc1 was read as Rango release inh -7%, miR-21 reporter -4% and Rango complex inh 1.3%.
`CC1CC(C)CN(CC(=O)Nc2cc(S(=O)(=O)N3CCOCC3)ccc2N2CCCC2)C1` (stereo unspecified) gave Rango release inh -9% and Rango complex inh 1.4%.
Screening C=CCOC(=O)C1=C[C@@H](c2ccc3c(c2)OCO3)C[C@@H](OCc2ccc(CO)cc2)O1 returned Rango release inh -4%, miR-21 reporter -6%, Rango complex inh -7.4% and GLA inh pH 4.5 -16.
For CCOc1ccc2nc(SCC(=O)NCc3ccc(S(N)(=O)=O)cc3)sc2c1 the results were Rango release inh -4%, miR-21 reporter -18% and Rango complex inh -1.9%.
For Cn1ncc2c(O/N=C(\N)c3ccc(C(C)(C)C)cc3)ncnc21 the results were Rango release inh 0%, miR-21 reporter inconclusive, Rango complex inh 7.1% and GLA inh pH 4.5 -8.
COc1ccc(CNCCNC(=O)c2cccs2)cc1OC was read as Rango release inh -6%, miR-21 reporter -6%, Rango complex inh 4.8% and GLA inh pH 4.5 -2.
For COCCn1nnnc1CN1C2CCCC1CC(NC(C)=O)C2 (stereo unspecified) the results were Rango release inh -7%, miR-21 reporter -5%, Rango complex inh 1.1% and GLA inh pH 4.5 -5.
For Cc1cc(C(=O)COC(=O)C2=NNC(=O)CC2)c(C)n1CCc1ccccc1 the results were Rango release inh 0%, miR-21 reporter -2%, Rango complex inh 2.9% and GLA inh pH 4.5 11.
For CN1CCN(C(=O)N2c3ccccc3C=Cc3ccccc32)CC1 the results were Rango release inh 13%, miR-21 reporter -8%, Rango complex inh -1.2% and GLA inh pH 4.5 -6.
O=c1oc2ccccc2n1CSC1=NCCS1 was read as Rango release inh 0%, miR-21 reporter 9%, Rango complex inh 1.5% and GLA inh pH 4.5 -2.
`C=CCNc1nc(Cl)nc(Nc2ccccc2)n1` gave Rango release inh 2%, miR-21 reporter -40% and Rango complex inh inconclusive.
For CCCOC(=O)C1=C(C)NC(=O)NC1c1ccc(Br)s1 (stereo unspecified) the results were Rango release inh -2%, miR-21 reporter -3%, Rango complex inh -2.5% and GLA inh pH 4.5 -1.
`COc1ccc(N2CCN(C(c3ccccc3)c3sc4nc(C)nn4c3O)CC2)cc1` (stereo unspecified) gave Rango release inh 12%, miR-21 reporter 4%, Rango complex inh 0.5% and GLA inh pH 4.5 -4.

Screening data from PubChem BioAssay.
